# Screening data (PubChem BioAssay)
# StopGo reporter – High Throughput Screening for Foot and Mouth Disease Virus Antivirals; human cells with a luciferase reporter of 2A StopGo recoding; control for the full effect not named in the record; Potency, µM (top dose mostly 57.9 µM), inactives show top-dose signal change, negative = less light; actives 1.2% (n = 410,000); active = well fitted falling curve with a large enough effect; inconclusive = small, poorly fitted or top-dose-only effect; inactive = no such curve, though single readings can be large or run the other way; tested in HEK293T cells; also: % is scaled to controls: 0 for no effect and ±100 for the full control effect; nearly all actives have a fitted effect of over 45% in size; luciferase light after 4 h
# NS1 function inh – qHTS Assay for Inhibitors of Influenza NS1 Protein Function; actives 0.4% (n = 270,000); S. cerevisiae slowed by influenza A NS1, growth recovery by OD600; Potency, µM (series often up to 46.1 µM), for inactives: at the top dose activity, positive = more growth; active means well fitted rising curve with a large enough effect; inconclusive means small, poorly fitted or top-dose-only effect; inactive means no such curve, though single readings can be large or run the other way; also: nearly all actives have a fitted effect of over 50% in size
#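 Recovery from NS1-induced slow growth read by OD600 in budding yeast switched to galactose assay medium (pH 6.0, -URA) at 1:100 dilution. Compound 23 nl per well; the matching strain lacking NS1 serves as control.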
# Lassa entry inh – qHTS for Inhibitors of binding or entry into cells for Lassa Virus | Lassa virus pseudotype entry inhibition, cell reporter; control for the full effect not named in the record | Potency, µM (highest dose often 37.9 µM), for the others: at the top dose activity change, negative = inhibition, actives largely listed as inhibitors | actives 1.2% (n = 300,000) | AID 540256, 2011; active means well fitted inhibition curve with a large enough effect; inconclusive means small, poorly fitted or top-dose-only effect, or effect the other way; inactive means flat fitted curve, though single readings scatter; tested in HEK293 cells; also: % is scaled to controls: 0 for no effect and ±100 for the full control effect; nearly all actives have a fitted effect of over 50% in size; luciferase read-out
# Cruzain noTriton – qHTS Assay for Promiscuous and Specific Inhibitors of Cruzain (without detergent). Cruzipain (Trypanosoma cruzi), P25779. purified cruzain, Z-FR-AMC fluorescence, no detergent. Potency, µM, inactives show max response, negative = inhibition, most hits filed as inhibitors. actives 2.3% (n = 200,000);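 also: plate controls were enzyme without inhibitor for no effect and buffer without enzyme for full effect; nearly all actives have a fitted effect of over 40% in size; top concentration of the series not given in the record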
# Target sequence (P25779 123-467 limits assumed): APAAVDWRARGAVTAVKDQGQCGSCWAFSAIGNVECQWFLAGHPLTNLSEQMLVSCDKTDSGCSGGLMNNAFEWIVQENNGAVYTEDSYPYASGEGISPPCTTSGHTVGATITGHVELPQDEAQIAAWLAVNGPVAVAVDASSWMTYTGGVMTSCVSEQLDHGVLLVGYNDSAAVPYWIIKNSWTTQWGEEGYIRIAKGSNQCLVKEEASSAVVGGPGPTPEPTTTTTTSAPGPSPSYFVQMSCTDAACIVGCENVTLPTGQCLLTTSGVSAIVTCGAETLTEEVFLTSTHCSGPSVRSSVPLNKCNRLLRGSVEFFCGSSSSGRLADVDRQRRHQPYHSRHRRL
#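 Detergent-free condition (0.00005% Triton X-100) in acetate buffer pH 5.5 with DTT. 1.5 nM enzyme and compound were pre-mixed 15 min, then 2 uM Z-FR-AMC substrate added; reaction progress from fluorescence change between first and third reads (60 s).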
# RE007 growth inh – qHTS Assay for Inhibitors of the HIV-1 protein Vpr | S. pombe RE007 Vpr strain, BacTiter-Glo ATP luminescence, 24 h; control for the full effect not named in the record | Potency, µM (highest dose often 92.2 µM), for inactives: at the highest dose activity change, negative = less growth | actives 0.21% (n = 360,000); active = well fitted falling curve with a large enough effect; inconclusive = small, poorly fitted or top-dose-only effect; inactive = no such curve, though single readings can be large or run the other way;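 also: % is scaled to controls: 0 for no effect and ±100 for the full control effect; nearly all actives have a fitted effect of over 50% in size; the assay follows cell death caused by Vpr and the record does not say whether a fall means rescue or toxicity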
#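 Fission yeast RE007 carrying one integrated HIV-1 vpr copy, seeded at OD 0.01 in PMG+AL medium with 23 nL pinned compound. Grown 24 h at 30 degrees; viability read by BacTiter-Glo luminescence after 5 min.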
# Cruzain Triton – qHTS Assay for Promiscuous and Specific Inhibitors of Cruzain (with detergent); purified cruzain, Z-FR-AMC fluorescence, 0.01% Triton; Potency, µM, for inactives: max response, negative = inhibition, hits mostly inhibitors; actives 0.43% (n = 200,000); AID 1478, 2009;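 also: plate controls were neutral wells for no effect and buffer without enzyme for full effect; nearly all actives have a fitted effect of over 40% in size; top concentration of the series not given in the record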
#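 Purified cruzain (1.5 nM final) was preincubated with compounds for 15 min at room temperature in 100 mM sodium acetate pH 5.5, 5 mM DTT, 0.01% Triton X-100. Reaction started with 2 uM Z-FR-AMC; AMC fluorescence change over 60 s gave activity.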
# SARS PLP yeast – qHTS of Yeast-based Assay for SARS-CoV PLP | S. cerevisiae expressing SARS-CoV PLpro, growth rescue; control for the full effect not named in the record | Potency, µM (top dose mostly 32.9 µM), inactives show at the top dose activity, positive = growth rescue | actives 0.19% (n = 330,000); active means well fitted rising curve with a large enough effect; inconclusive means small, poorly fitted or top-dose-only effect; inactive means no such curve, though single readings can be large or run the other way; also: 0% is about no effect; nearly all actives have a fitted effect of over 55% in size; growth read by luminescence after 48 h
# Marburg entry inh – qHTS for inhibitors of binding or entry into cells for Marburg Virus. Marburg virus pseudotyped entry inhibition, cell reporter; control for the full effect not named in the record; about a third of the inactives were read at about 46 µM. Potency, µM (highest dose often 37.8 µM), for inactives: top-dose activity change, negative = inhibition, usual class: inhibitors. actives 1.8% (n = 300,000); active = well fitted inhibition curve with a large enough effect; inconclusive = small, poorly fitted or top-dose-only effect, or effect the other way; inactive = flat fitted curve, though single readings scatter; tested in HEK293 cells; about a fifth of its hits are not listed in these tables; also: % is scaled to controls: 0 for no effect and ±100 for the full control effect; luciferase read-out
# Active calls of the source: *; ? = inconclusive; nt = no result given; & = joins results of further samples; [ ] = dose if it differs, or a comment. Unless noted, calls follow the shape of the dose curve; as a rule, active = well fitted curve in the direction sought with a large enough effect; inconclusive = small, poorly fitted or top-dose-only effect, or another doubt; inactive = no such curve, though single readings can be large; an effect the other way counts as inactive or inconclusive. Potency is read from the fitted curve at half-maximal effect.
SMILES,StopGo reporter,NS1 function inh,Lassa entry inh,Cruzain noTriton,RE007 growth inh,Cruzain Triton,SARS PLP yeast,Marburg entry inh
CN1CCN(NC(=O)c2ccccc2F)CC1,-20%,-5%,24%,-3%,-17%,1.7%,0%,-3%
COc1ccc(NC(=S)NCc2cccs2)c(OC)c1,10%,13%,1%,1%,11%,1.6%,11%,-7%
Cc1nnc(SCC(=O)NNC(=O)c2ccc(Cl)cc2)s1,-15%,13%,1%,nt,12%,nt,2%,?
CN(C)c1ccc(/C=N/NC(=O)c2ccccc2O)o1,29%,nt,4%,nt,-6%,nt,?,5%[46.1 µM]
COC(=O)c1ccccc1NC(=O)N1CCN(c2ccccc2F)CC1,-9%,0%,3%[46.1 µM],nt,-4%,nt,-1%,?
CCOC(=O)c1cnc2c(C)c(Cl)ccc2c1NCCc1ccc(OC)c(OC)c1,-17%,nt,1%[46.1 µM],?,nt,-3.9%,nt,-4%[46.1 µM]
CCc1cn(S(=O)(=O)c2ccccc2OC)nc1N,31%[activator],-8%,-2%,0%,10%,2.0%,2%,15%
CCOC(=O)c1ccc(N=c2sc(C(=O)OC)cc(=O)n2CCCN2CCOCC2)cc1,16µM*,-61%&0%,nt,?,-12%&8%,-3.6%,4%&-2%,-4%
Cc1ccc(-n2c(C)cc(C(=O)OCC(=O)N3CCOCC3)c2C)cc1,14%,nt,?,nt,37%,nt,11%,4%
COc1ccc(-c2[nH]ncc2/C=C(/C#N)C(=O)NC2CCCCCC2)cc1,-8%,16%,?,8%,-8%,-7.8%,2%,10µM*
CN(C)CCC(=O)c1ccc2c(c1)OCO2,-7%,-217%,-4%,-18%,11µM*,-21%,-33%,-14%
Cn1cnc2c1c(=O)n(Cc1c(Cl)cccc1Cl)c(=O)n2C,10%,-21%,-6%,-13%,-8%,3.2%,4%,0%
O=C(CSc1ccc([N+](=O)[O-])cn1)Nc1cc(C(F)(F)F)ccc1N1CCOCC1,-24%,-2%,-20%,nt,34%,nt,1%,?
CCc1ccc2oc(-c3ccc(C)c(NC(=O)/C=C/c4ccco4)c3)nc2c1,37%[activator],nt,17%[46.1 µM],-5%,nt,-2.6%,nt,nt
Cc1ccc(NC(=O)CSc2nnc(-c3ccco3)c(-c3ccco3)n2)cc1,-5%,-5%,2.8µM*,10µM*,-2%,25µM*,?,-16%&-16%
Oc1[nH]c2ccccc2c1N=Nc1ccccn1,28%,nt,?,nt,3%,nt,nt,?
CCOC(=O)C(=O)Nc1c(C(=O)Nc2cccc(F)c2)oc2ccccc12,0%,nt,14%[46.1 µM],5%,nt,-2.7%,nt,1%[46.1 µM]
COc1ccc(N2CCN(CCCNC(=O)c3cc(Nc4ccc(OC)cc4OC)nc4ccccc34)CC2)cc1,22µM*,nt,?,-6%,nt,0.2%,nt,nt
O=C(CN1CCN(Cc2ccccc2F)C1=O)NCCN1CCOCC1,-4%,3%,nt,1%,-1%,2.0%,-3%,nt
O=C(O)C1CCCN(S(=O)(=O)c2cccc3cccnc23)C1 (stereo not given),-26%,2%,nt,-2%,7%,0.0%,3%,nt
NC(=O)CN1CCCN(S(=O)(=O)c2ccc(Br)cc2)CC1,17%,4%,-10%,2%,0%,5.5%,-6%,6%[46.1 µM]
CCSc1nnc(NC(=O)c2cc(C)on2)s1,28%,-93%,5%,-11%,?,-0.7%,-31%,21%
O=C(Cn1cccn1)c1ccccc1,11%,nt,10%,nt,-3%,nt,2%,13%[46.1 µM]
CCN(/N=C/c1ccc(Cl)cc1)c1cc(=O)n(C)c(=O)[nH]1,-12%,1%,7%,-25%,38%,-13%,16%,-18%
O=C(CSc1nc2ccccc2n1Cc1c(F)cccc1Cl)N1CCN(c2ccc(F)cc2)CC1,-9%,nt,nt,-7%,nt,0.0%,nt,15%[46.1 µM]

# Single records, as listed above.
# COc1ccc(-c2[nH]ncc2/C=C(/C#N)C(=O)NC2CCCCCC2)cc1 is listed with StopGo reporter: -8%; NS1 function inh: 16%; Lassa entry inh: ?; Cruzain noTriton: 8%; RE007 growth inh: -8%; Cruzain Triton: -7.8%; SARS PLP yeast: 2%; Marburg entry inh: 10µM*
# Cn1cnc2c1c(=O)n(Cc1c(Cl)cccc1Cl)c(=O)n2C is listed with StopGo reporter: 10%; NS1 function inh: -21%; Lassa entry inh: -6%; Cruzain noTriton: -13%; RE007 growth inh: -8%; Cruzain Triton: 3.2%; SARS PLP yeast: 4%; Marburg entry inh: 0%

# Remaining list, next part:
SMILES,StopGo reporter,NS1 function inh,Lassa entry inh,Cruzain noTriton,RE007 growth inh,Cruzain Triton,SARS PLP yeast,Marburg entry inh
CCCNC(=O)c1cccc(Cn2nc(C)c(Br)c2C)c1,-19%,-67%,-2%,10%,-9%,-0.5%,-15%,-22%[46.1 µM]
Cc1noc(C(=O)NCc2ccccc2)c1Cl,0%,-14%,nt,-6%,2%,6.9%,3%,nt
CN1CCN(c2ccc([N+](=O)[O-])cc2C(=O)N2CCOCC2)CC1,7%,10%,1%,-8%,18%,-1.8%,5%,12%[46.1 µM]
Cc1cccn2c(=O)c(C=O)c(N3CCN(c4ccccc4)CC3)nc12,-24%,-31%,11%,nt,12%,nt,-2%,?
COCCCNC(=O)/C(C#N)=C/c1ccc(OCC(=O)O)c(OC)c1,-24%,4%,6%,10%,nt,-4.7%,-17%,2%
COC(=O)c1cc(NC(=O)C23CCC(C)(C(=O)O2)C3(C)C)cc(C(=O)OC)c1 (stereo not given),6%,-2%,-10%,-1%,18%,-3.6%,0%,22%
Cc1ccc(NC(=O)COC(=O)c2cc(-c3cccs3)nn2-c2ccccc2)cc1[N+](=O)[O-],-20%,14%,-4%,?,-6%,-3.3%,19%,-10%
C#CCSc1nnc(-c2sc3ccccc3c2Cl)o1,56%[activator],-18%,-23%,-5%,-24%,-4.0%,4%,?
CCC(C)(C(=O)NC1CCCCC1)N(C(=O)CC1NC(=O)NC1=O)c1c(C)n(C)n(-c2ccccc2)c1=O (stereo not given),-14%,nt,24%,nt,15%,nt,-3%,14%
O=C(O)CNC(=S)N(Cc1ccccc1F)C1CCCCC1,27%,nt,14%[46.1 µM],nt,0%,nt,1%,-7%[46.1 µM]
CS(=O)(=O)N(CC(=O)NCc1ccc2c(c1)OCO2)c1ccc(Cl)cc1,12%,-60%,0%,17%,23%,-0.9%,2%,0%
Cc1ccccc1CN(c1ccc(C(=O)Nc2ccccc2C(=O)N2CCCC2)cc1)S(C)(=O)=O,0%,-7%,?,?,11%,-9.1%,-4%,?
COc1ccc(C(=O)N(Cc2ccc(N(C)C)cc2)Cc2ccco2)cc1Cl,0%,nt,?,-6%,nt,-8.4%,nt,11%[46.1 µM]
CC(C)NC(=O)c1cc(-c2ccc3c(c2)OCO3)on1,31%[activator],-10%,?,nt,-2%,nt,0%,?
COc1cc(/C=N\NC(=O)c2ccc(Cn3cc(Br)c([N+](=O)[O-])n3)o2)cc(OC)c1O,-18%,?,1%,6%,-13%,-9.2%,1%,-29%
CCCn1c(C(C)Nc2nc(-c3ccc(C)cc3)cs2)nc2ccccc21 (stereo not given),-4%,16%,nt,nt,4%,nt,6%,nt
C=CCn1c(SCC(=O)c2ccc(Br)cc2)nnc1C(C)NC(=O)Cc1ccc(OC)cc1 (stereo not given),-21%,0%,-5%,2%,-14%,1.8%,1%,11%
O=C(CCC(=O)N1CCOc2ccccc21)NCc1cccs1,-17%,nt,-2%[46.1 µM],4%,nt,-0.8%,nt,-19%[46.1 µM]
O=C(CCSc1nc(-c2ccco2)cc(C(F)(F)F)n1)NCc1ccccn1,-20%,-15%,1%,23%,0%,-6.7%,2%,-13%
O=C(CSc1ccccc1)Nc1ccccc1C(=O)O,0%,5%,?,1%,-18%,-0.6%,nt,18µM*
Cc1cc(S(=O)(=O)NC2CCCCC2)c(C)s1,41%[activator],-48%,19%,7%,7%,8.4%,-21%,3%
COc1cccc(-n2c(=O)c3c(C)c(C)sc3n(CC(=O)Nc3ccccc3OC)c2=O)c1,-9%,nt,27%[46.1 µM],-7%,nt,-2.2%,nt,?
CCOC(=O)Cc1csc(NC(=O)COc2ccccc2)n1,?,?,0%,-2%,5%,-3.4%,-3%,-6%
S=c1[nH]nc(COc2ccccc2)n1/N=C/c1cccc(Cl)c1Cl,3%,-3%,nt,nt,6%,nt,-1%,nt
O=C(N/N=C/c1ccc(N2CCOCC2)cc1)c1ccncc1,7%,nt,-2%,nt,0%,nt,-4%,?

# New compounds follow
SMILES,StopGo reporter,NS1 function inh,Lassa entry inh,Cruzain noTriton,RE007 growth inh,Cruzain Triton,SARS PLP yeast,Marburg entry inh
COc1ccc(C2=CSC(/N=C/c3ccc(F)cc3)=NN2)cc1,nt,-26%,4%,13µM*,-13%,-4.0%,?,?
COc1ccc(N2CCN(C3(c4ccccc4)C(=O)c4ccccc4C3=O)CC2)cc1,-2%,nt,-15%[46.1 µM],-25%,nt,-4.3%,nt,?
O=C1[C@@H]2[C@@H]3C[C@@H]([C@H]4ON=C(c5ccc(OCc6ccccc6)cc5)[C@@H]34)[C@@H]2C(=O)N1c1ccc2c(c1)OCO2,-9%,?,-15%,?,6%,-2.5%,21%,4.5µM*
Cn1c(SCC(=O)N2CCN(S(=O)(=O)c3ccc(Cl)cc3)CC2)nc2ccccc21,?,1%,?,2%,9%,-0.9%,-1%,-18%
Cc1ccc(C(c2nnnn2Cc2ccccc2)N2CCN(Cc3ccccc3)CC2)cc1 (stereo not given),-15%,3%,-18%,1%,-5%,-2.9%,-1%,?
Cc1ccc(OCCCC(=O)N2CCN(S(=O)(=O)c3cccc(F)c3)CC2)cc1,?,nt,0%,nt,-6%,nt,-1%,2%[46.1 µM]
